Source: PubChem (several laboratories)
Autofluor counter: compound fluorescence in toxin protease inhibitor counterscreen; 360,000 compounds, 3.1% hits; fluorescence intensity (concentration not given with the values); compound autofluorescence counterscreen, microsphere flow cytometry; hits give high values;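 active = at least 3 SD above the mean of all compounds, about 16000 in these data; inconclusive = too few beads counted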;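 also: 100 nL of 1 mM stock went into each well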
Sa ugtP lethal: growth inhibition of S. aureus ugtP deletion strain | S. aureus RN4220 ugtP deletion, OD600 growth, 16 h; some inactives read as strong as hits | growth inhibition, % (no concentration beside the values) | 330,000 compounds, 0.54% hits;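 active = z-score under -3 and OD600 up to 0.15 on both plates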;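 also: plate controls were untreated wells for no effect and antibiotic for full effect; wells of about 80 µL received 100 nL stock; the first replicate is given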
Mtb hypoxia inh: Mtb hypoxia fluorescent reporter inhibition. 300,000 compounds, 0.1% hits. M. tuberculosis hypoxia-regulated fluorescent reporter, fluorescence. fluorescence inhibition, % (no concentration beside the values). AID 1159583;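 active = 35 to 45% if threefold the growth effect, above 45% if 1.5-fold the growth effect; inactive = the rest, general growth blockers included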;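 also: wells of about 50 µL received 100 nL stock; 0% = vehicle wells and 100% = reference inhibitor wells; whole bacteria with a GFP reporter of the hypoxia response; strong numbers were not always called active; many hits fall short of the cut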
BJeLR viability: kills HRASV12-expressing BJeLR cells; BJeLR (HRASV12) viability, CellTiter-Glo ATP luminescence, 48 h; reference of the scale not given here; inhibition, % (no concentration beside the values); 300,000 compounds, 0.17% hits;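 active = replicate mean above 50%; inconclusive = above 50% but judged a plate artefact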;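 also: 50 nL library stock added to about 25 µL; numbers are from one replicate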
PrP UTR inh: suppresses PrP 5' UTR mRNA reporter expression | cell-based PrP 5' UTR mRNA reporter, plate reader | inhibition, % (no concentration beside the values) | 340,000 compounds, 0.35% hits | AID 488862;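 active = every replicate at 50% or more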;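 also: 0 = median of the neutral control wells; tested in H4 reporter cells; numbers are from one replicate; inactives centre near -14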
Sa RN4220 lethal: S. aureus RN4220 growth inhibition. OD600, 16 h. inhibition, % (no concentration beside the values). 330,000 compounds, 0.33% hits;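 active = z-score of -3 or lower and OD600 up to 0.18 on both plates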;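 also: plate controls were untreated cells for no effect and reference antibiotic for full effect; stock transfer was 100 nL into about 80 µL; one replicate is shown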
Mtb hypoxia inh growth: recorded beside Mtb hypoxia inh, whose call it bears; growth inhibition, %; measured here: M. tuberculosis growth (absorbance);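 0% = vehicle and 100% = reference antibiotic; read after six days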
Starred values were filed as active, the others as inactive; u = inconclusive; x = no result given.

SMILES	Autofluor counter	Sa ugtP lethal	Mtb hypoxia inh	Mtb hypoxia inh growth	BJeLR viability	PrP UTR inh	Sa RN4220 lethal
O=C(NCc1cccs1)c1csc2ccccc12	12108	-2	x	x	-7	-41	0.9
COCCN(C(=O)CCC(=O)Nc1ccccn1)C(C(=O)NC(C)(C)C)c1ccc(OC)cc1 (stereo unspecified)	4137	0	10	1	5	-15	0.6
C=CCN1CC(=O)N2C(c3ccccc3)c3[nH]c4ccccc4c3C[C@H]2C1=O (stereo partly specified)	3964	-1	4	-5	2	-1	-0.4
CCOCCCn1c(SCC(=O)NCc2ccco2)nc2c(sc3ccccc32)c1=O	9584	-11	4	11	-3	-16	1.0
N#CCNc1ccc([N+](=O)[O-])cc1C#N	4320	-5	-10	0	6	-26	-1.8
CCc1sc(C(=O)NCc2ccco2)cc1C	4903	0	x	x	-12	-22	4.8
Cc1cc(C(=O)N2CCCC(N3CCN(c4cccc(C(F)(F)F)c4)CC3)C2)c(C)o1 (stereo unspecified)	5708	-1	5	12	-7	-3	2.7
CCCN1CCC(=O)N([C@H](COc2ccccc2)Cc2ccccc2)CC1	3813	x	x	x	-3	-3	x
O=C(NC1CC1)c1ccc(-c2ccccc2)cc1	4423	11	-7	-7	12	-63	14
S=C(NCC1CCCO1)N1CCN(c2nc(-c3ccc(Cl)cc3)cs2)CC1 (stereo unspecified)	4344	4	0	5	6	-26	-14
CCN1CCN(CCNC(=O)c2ccc3nc(-c4cccc(C)c4)c(-c4cccc(C)c4)nc3c2)CC1	5827	9	10	13	11	-17	-1.6
Cn1ncc(Cl)c1C(=O)Nc1ccc2c(c1)OCO2	6362	-4	-1	-1	-1	-25	0.3
NC(=O)C1(N2CCCCC2)CCN(C(=O)NC2CCCCC2)CC1	u	-1	9	7	-1	-13	-8.9
Cc1ccc(C(=O)C2COC(=O)C2)cc1 (stereo unspecified)	10350	2	5	7	-12	-32	5.4
CCOC(=O)NC(NCC(O)c1ccccc1)(C(F)(F)F)C(F)(F)F (stereo unspecified)	6036	10	-5	-8	1	-24	6.4
S=c1[nH]nc(-c2ccc(Br)o2)n1Cc1ccccc1	7884	2	5	6	1	8	8.7
CC1CCN(c2ccc3c(c2)S(=O)(=O)c2cccc(C(=O)O)c2C3=O)CC1	4005	-1	9	10	x	-10	8.1
C=C(C)[C@@H]1CC=C(CN2CCC(N3CCC(C(=O)N4CCCC4)CC3)CC2)CC1	7116	-1	-1	7	34	-10	-1.6
CC(/C=C/c1ccco1)=NNC(=O)c1ccc(C)nc1	x	-5	16	0	x	x	5.3
CCc1nnc(NC(=O)C2CCCCC2)s1	22291*	-1	-8	7	0	-17	-2.7
CC(C)(C)C(=O)NC(c1ccccc1)c1c(O)ccc2ccccc12 (stereo unspecified)	3891	5	-8	-3	-1	-19	-1.3
CCOC(=O)C(NC(=O)CC)(Nc1cc(C)on1)C(F)(F)F (stereo unspecified)	2631	-4	x	x	-2	19	-4.8
CC(=O)OCC1OC(Sc2cccc3cccnc23)C(OC(C)=O)C(OC(C)=O)C1OC(C)=O (stereo unspecified)	4080	7	15	9	-4	-19	0.3
C[C@H](NS(=O)(=O)c1ccc2c(c1)OCCCO2)C(=O)N1CCN(Cc2ccccc2)CC1	6068	2	-6	1	x	-30	5.0
CN(C(=O)COC(=O)/C=C/c1ccc2ccccc2n1)c1c(N)n(Cc2ccccc2)c(=O)[nH]c1=O	3631	4	2	4	x	0	1.4
CN(CC(=O)Nn1cnnc1)S(=O)(=O)c1ccc(Br)cc1	18838*	-2	3	5	-2	-14	-1.6
COc1ccc(OC)c(CN2C(=O)c3ccccc3C2C(=O)NCc2cccnc2)c1 (stereo unspecified)	5262	-2	1	-2	17	-20	6.7
CCCn1c(SCC(=O)NCCc2ccccc2)nnc1-c1ccco1	3463	16	x	x	-11	-9	2.5
O=C(Nc1cccc(NC(=O)c2ncn[nH]2)c1)c1cccc(Cl)c1	4375	3	0	0	-1	0	-5.6
CC(=O)NCc1ccc(S(=O)(=O)N/N=C/c2ccc(N(C)C)cc2)cc1	2443	x	x	x	2	-9	x
CC(=O)c1cccc(NC(=O)/C(=C\c2cccnc2)NC(=O)c2ccccc2)c1	5597	11	-1	3	-7	-9	3.6
CCCCC(=O)Nc1cccc(NC(=O)c2ccccc2Br)c1	20490*	3	2	3	5	-13	-0.4
Cc1ccc(NC(=O)[C@H](C)NC(=O)C2CCN(C(=O)[C@H](CC(C)C)NC(=O)OC(C)(C)C)CC2)cc1	2874	0	-6	-5	-12	4	-1.9
CN(C)/C=N/c1nc2nccc(-c3ccc(F)cc3)n2n1	4252	x	x	x	7	-36	x
COc1ccc(C(=O)NN=Cc2ccc(N3CCOCC3)s2)cc1OC	x	12	5	9	x	x	2.2
O=C(c1c[nH]c(C(=O)C(Cl)(Cl)Cl)c1)c1ccccc1Br	3598	-7	0	-6	7	-13	3.2
Cc1ccc(S(=O)(=O)Nc2nc3ccccc3nc2N2CCOCC2)cc1	3609	1	4	14	x	-5	0.5
CCOc1ccc(/C=C2/SC(=O)NC2=S)cc1	9286	100*	14	7	-3	-23	66
COC(=O)c1cccc(N(C(=O)c2ccco2)C(C(=O)NC2CCCC2)c2ccco2)c1 (stereo unspecified)	3629	1	x	x	-5	-18	0.6
CN1CCN(c2ccc([N+](=O)[O-])c(N3CCCCC3)c2)CC1	2499	5	13	6	3	-4	6.5
Fc1cccc(CSc2nnc3c(n2)[nH]c2ccccc23)c1	4283	8	-4	-4	16	-66	13
CCOc1ccc(NC(=O)CN2C(=O)COc3ccc(S(=O)(=O)N4CCCCC4)cc32)cc1	5590	5	3	-6	-9	-16	-5.7
Cc1cc(C)cc(N=Cc2[nH]c3ccc(Br)c(Cl)c3c2O)c1	6638	74	-1	2	-4	-24	27
O=C(Nc1ccccc1)Nc1ccc(NC(=O)c2ccccc2O)cc1	3257	-6	-8	-3	16	-17	-3.8
N=C1C(=Cc2ccc(OC(=O)c3ccc(F)cc3)cc2)C(=O)N=C2SC(N3CCCC3)=NN12	x	7	10	5	x	x	12
Cn1c(=O)[nH]c(=O)c2c1nc(NCCCn1ccnc1)n2Cc1cccc(Br)c1	4649	2	3	4	1	-19	-0.9
COc1cc(/C=N/Nc2nc(=O)[nH]nc2C)cc(OC)c1O	4008	x	x	x	7	-30	x
CCC1=NN(C(=O)c2ccc(Cl)cc2)C(O)(c2ccc(C)cc2)C1 (stereo unspecified)	x	-8	-9	5	1	-17	-3.9
CCCCn1c(=O)c(CCC(=O)OCC(=O)NC(=O)NCCC(C)C)nc2ccccc21	4313	-1	-2	-2	x	-23	3.9
COc1ccc(OCc2cc(C(=O)NCC(C)Oc3cccnc3)no2)c(Cl)c1 (stereo unspecified)	5975	2	-12	1	1	-37	7.1
O=C(NC1CCCc2ccccc21)c1cncc(Br)c1 (stereo unspecified)	4699	-1	x	x	-6	0	0.1
O=c1c(/C=C(\O)c2ccc(F)cc2)nc2ccccc2n1-c1ccccc1	14800	23	x	x	-2	-1	26
Cc1cc(C=C2NC(=O)NC2=O)c(C)n1-c1sc2c(c1C#N)CCCC2	x	-8	4	17	x	x	9.6
CN(C)S(=O)(=O)N1CCN(C(=O)c2cccs2)CC1	12256	-4	6	13	10	4	1.9
Cc1nnc(SCC(=O)Nc2sccc2C#N)n1Cc1ccccc1	2871	8	x	x	5	-18	3.5
COC(=O)C(Cc1ccc(O)cc1)NC(=O)C12CC3CC(CC(C3)C1)C2 (stereo unspecified)	4258	5	8	1	-13	-13	2.3
CCc1ccc(NC(=O)CC(C)=NNC(=O)COc2ccc(C)cc2Br)cc1	x	-13	16	4	x	x	1.4
NC(=O)C1CC2(CC(c3cccc(NC(=O)COc4ccc(Cl)cc4)c3)=NO2)CN1C(=O)C(c1ccccc1)c1ccccc1 (stereo unspecified)	x	7	4	8	x	x	-5.5
CCN=C(NN=Cc1ccc([N+](=O)[O-])cc1)SC	x	3	13	21	x	x	5.0
O=C(CNC(=O)C1CCCCC1)OC(C(=O)c1ccccc1)c1ccccc1 (stereo unspecified)	4078	-4	-4	-14	x	8	-0.6
Next part:
SMILES	Autofluor counter	Sa ugtP lethal	Mtb hypoxia inh	Mtb hypoxia inh growth	BJeLR viability	PrP UTR inh	Sa RN4220 lethal
Brc1cc2c(cc1CN1CCc3ccccc3C1)OCO2	3991	11	2	7	10	-6	-4.9
O=[N+]([O-])c1ccc(C=NNc2ccc(S(=O)(=O)O)cc2)cc1	3914	-2	5	6	x	0	4.0
Cc1ccccc1OCC(=O)Nc1cccc(N(C)S(C)(=O)=O)c1	9816	0	0	15	-2	-27	0.1
COc1ccc(NC(=O)CN2C3CCC2CC(O)(c2cccnc2)C3)cc1OC (stereo unspecified)	3792	5	x	x	10	-21	-1.5
CCOC(=O)Cc1csc(NC(=O)CSc2nnnn2-c2ccc(F)cc2)n1	9337	-9	1	3	-3	-3	4.9
Cc1c(C)n(C)c2ccc([N+](=O)[O-])cc12	4038	60	11	9	-1	-14	3.8
N#CCCN(C(=O)COC(=O)c1ccc2ccccc2n1)c1ccccc1	u	-2	6	-7	x	-6	-0.2
CCNC(=S)NN=Cc1ccccc1[N+](=O)[O-]	x	-16	-4	21	x	x	-0.7
Cc1nc(N)c(C#N)c(-c2cccnc2)c1-c1ccccc1	3473	3	2	6	9	5	-1.0
Cc1ccc(S(=O)(=O)CCc2nc3ccccc3s2)cc1C	3358	-2	12	6	-6	-21	3.4
Nc1nn(S(=O)(=O)c2ccccc2)cc1-c1cccc([N+](=O)[O-])c1	4249	17	0	-1	2	-25	-2.7
CCC(=O)N1CCc2cc(Br)cc(S(=O)(=O)NCCCN(C)Cc3ccccc3)c21	3264	1	22	10	-7	-11	12
Nc1nc(-c2ccc3ccccc3c2)c(C2(O)C(=O)Nc3c(Br)cc(F)cc32)s1 (stereo unspecified)	10360	1	2	-4	15	-6	11
COc1ccc(N2CC(C(=O)Nc3nnc(SCC(=O)N4CCOCC4)s3)CC2=O)cc1 (stereo unspecified)	6119	0	5	-4	5	-11	1.9
Cc1ccc(OCC(=O)NN=Cc2ccco2)c(C)c1	x	2	10	5	x	x	1.7

Of the compounds above, 3 have a CF3 group.
SMILES	Autofluor counter	Sa ugtP lethal	Mtb hypoxia inh	Mtb hypoxia inh growth	BJeLR viability	PrP UTR inh	Sa RN4220 lethal
Cc1cc(C(=O)N2CCCC(N3CCN(c4cccc(C(F)(F)F)c4)CC3)C2)c(C)o1 (stereo unspecified)	5708	-1	5	12	-7	-3	2.7
CCOC(=O)NC(NCC(O)c1ccccc1)(C(F)(F)F)C(F)(F)F (stereo unspecified)	6036	10	-5	-8	1	-24	6.4
CCOC(=O)C(NC(=O)CC)(Nc1cc(C)on1)C(F)(F)F (stereo unspecified)	2631	-4	x	x	-2	19	-4.8

More structures follow:
SMILES	Autofluor counter	Sa ugtP lethal	Mtb hypoxia inh	Mtb hypoxia inh growth	BJeLR viability	PrP UTR inh	Sa RN4220 lethal
Cc1ccc(C)c(N2CCN(C(=S)Nc3ccc4nc(N5CCN(C)CC5)cc(C)c4c3)CC2)c1	3779	5	-3	2	-6	0	8.7
O=C(O)/C=C/C(=O)Nc1ccc(Cc2ccc(NC(=O)/C=C/C(=O)O)cc2)cc1	4373	7	1	-1	1	1	0.4
Cc1nc(Cl)cc(NN=Cc2ccc(O)cc2)n1	x	3	14	6	x	x	0.9
Cc1cc(NS(=O)(=O)c2ccc(N3C(=O)C4C5C=CC(C5)C4C3=O)cc2)nc(C)n1 (stereo unspecified)	2615	13	4	3	-4	-3	4.8
COc1cccc(-c2cc(C(=O)NCCCn3ccnc3)c3ccccc3n2)c1	2467	1	10	5	6	-26	6.5
COc1ccc(OCCSc2ncccn2)cc1	15954	8	3	1	2	-34	3.5
O=C(CCC1CCCCC1)Nc1cc(Cl)ccc1N1CCOCC1	5894	-9	2	2	x	-22	2.0
Cc1ccc(S(=O)(=O)NCC(=O)OCc2nnc(-c3ccccc3)o2)cc1C	2672	-4	24	3	-12	-18	-7.5
CCCCOC(=O)N1CCOCCOCCOCC1	4372	5	9	8	13	-12	1.1
COc1ccc(-c2cc(CCCC(=O)NCCc3ccccc3)no2)cc1	3846	8	3	4	4	-6	1.5
CCOc1cccc(CN2CCCC(C(=O)Nc3cccc(-n4cccn4)c3)C2)c1 (stereo unspecified)	6489	5	7	-16	5	-16	-0.9
